VACV Venus inh – vaccinia inhibition (Venus reporter); Vaccinia virus Venus reporter expression, fluorescence; Potency, µM (series often up to 36.5 µM), for inactives: at the highest dose activity change, negative = inhibition, most hits filed as inhibitors; actives 0.46% (n = 330,000); AID 720580; active means well fitted inhibition curve with a large enough effect; inconclusive means small, poorly fitted or top-dose-only effect; inactive means no such curve, though single readings can be large or run the other way; tested in A549 cells; note: nearly all actives have a fitted effect of over 30% in size; inactives centre near -10
VACV mCherry inh – inhibitors of vaccinia virus infection (mCherry reporter signal) | Vaccinia virus mCherry reporter infection, fluorescence; about a quarter of the inactives have no number | Potency, µM (series often up to 36.5 µM), for inactives: at the highest dose activity change, negative = inhibition, hits mostly inhibitors | actives 0.63% (n = 310,000); active = well fitted inhibition curve with a large enough effect; inconclusive = small, poorly fitted or top-dose-only effect; inactive = no such curve, though single readings can be large or run the other way; tested in A549 cells; note: nearly all actives have a fitted effect of over 35% in size; inactives centre near -10
The depositor's hits bear a star; i = inactive; u = inconclusive; x = no result given; & = joins results of further samples; [ ] = dose if it differs, or a comment. % is set by controls: 0 for no effect and ±100 for the full control effect; potency is the fitted concentration of half-maximal effect.

SMILES	VACV Venus inh	VACV mCherry inh
COc1ccc(NC(=O)NC2COc3ccccc3C2)cc1Cl (stereo not given)	-9.5%	-10.3%
CCOc1ccc(CNS(=O)(=O)c2ccc(-c3coc(C)n3)cc2)cc1	-5.6%	0.7%
CCOc1ccc(S(=O)(=O)NCCc2cn3ccccc3n2)cc1	-13.6%	-2.1%
CSc1ncccc1C(=O)OCC(=O)Nc1ccc(S(=O)(=O)N2CCCC2)cc1	-17.4%	-14.2%
N=c1sccn1CC(=O)Nc1ccc(Cl)cc1[N+](=O)[O-]	-22.6%	u
CCN(CC)C(=O)c1ccc(NC(=O)c2c(C)noc2C)cc1	-16.5%	-5.9%
Cc1ccc(NCc2nc3ccccc3n2C)cc1C	-8.5%	-5.8%
CC(=O)c1cccc(N(CC(=O)Nc2cc(C)cc(C)c2)S(C)(=O)=O)c1	-3.4%	-12.3%
CCn1c(=O)n(-c2ccc(F)c(Cl)c2)c(=O)c2sc3ccccc3c21	3.2%	4.3%
CCC(C)C(=O)Nc1cc(C(=O)OC)cc(C(=O)OC)c1 (stereo not given)	-17.5%	-20.1%
CCn1c(-c2csc3c2CCC(C)C3)n[nH]c1=S (stereo not given)	u	-15.7%
CCc1ccc(NC(=O)CN2C(=O)CC(C)S(=O)(=O)c3ccccc32)cc1 (stereo not given)	-2.9%	-0.7%
CC(C)CNC(=O)COC(=O)c1ccc2c(c1)C(=O)N(Cc1ccco1)C2=O	-16.5%	i
COc1ccc(NC(=O)COn2nnc3ccc(Cl)cc32)cc1OC	-7.0%	-2.5%
COc1ccc(CNC(=O)CS(=O)(=O)c2cccc3nsnc23)cc1	-5.9%	-12.4%
CCCn1c(CCNc2nc(-c3cccc(Br)c3)cs2)nc2ccccc21	-13.8%	-15.3%
C#CCOCCOCCOCCNc1nc(N2CCN(C(=O)[C@H](CO)n3cc([C@@H](N)C(C)C)nn3)CC2)nc(N2CCN(C(=O)[C@H](CCC(=O)O)n3cc([C@@H](N)[C@H](C)CC)nn3)CC2)n1	-2.7%	12.2%
OC[C@@H]1CCC[C@@H](n2cnc3c(=S)nc[nH]c32)O1	-19.9%	-16.0%
CCOc1ccc(N(CC(=O)Nc2c(C)n(C)n(-c3ccccc3)c2=O)S(=O)(=O)c2ccccc2)cc1	-13.5%	-2.6%
COc1ccc2c(c1)c(C(=O)N/N=C/c1cccc(Br)c1)c(C)n2C	-24.2%	-12.0%
CCOC(=O)N/N=C1\CC(C)CC(C)(C)C1 (stereo not given)	-4.2%	i
O=C(COc1ccc([N+](=O)[O-])cc1)Nc1ccc2[nH]c(=O)[nH]c2c1	-0.8%	-9.2%
COCCNC(=O)C1CCCN(Cc2cccc(C(F)(F)F)c2)CC1 (stereo not given)	3.0%	i
COC(=O)[C@@H]1C[C@@]2(O)[C@@H](O)[C@@H](O)[C@@H](O)C[C@H]2N1Cc1ccc(C)s1	-7.2%	i
Cc1ccc(C(=O)CSc2nnc(-c3cccs3)n2C)o1	-6.7%	i
(cont.)
SMILES	VACV Venus inh	VACV mCherry inh
CCS(=O)(=O)N1CC(=O)N(c2cccc(C)c2C)C(C)(C(=O)NC2CCCCC2)C1 (stereo not given)	3.3%	-13.8%
Cc1ccc(NC(=O)CCC(=O)OC(C)C(=O)c2ccccc2)cc1 (stereo not given)	3.0%	-13.0%
CCOC(=O)C(C)Sc1nc(-c2ccco2)cc(C(F)(F)F)c1C#N (stereo not given)	-0.1%	-14.3%
COc1ccc(NC(=O)CN(c2ccccc2)S(=O)(=O)N(C)C)cc1OC	-23.2%	-25.0%
C=CCn1c(C(CC(C)C)CC(C)O)n[nH]c1=S (stereo not given)	-10.3%	i
COc1cccc(N/C(SC)=C(/C#N)C(=O)NCc2cccs2)c1	-12.0%	-10.6%
CCCc1cc(=O)[nH]c(SCC(=O)Nc2cccc(S(=O)(=O)N3CCOCC3)c2)n1	-12.7%	i
O=C(NCc1ccc(Cl)cc1)C1CCCN1C(=O)Nc1ccccc1 (stereo not given)	-4.9%	i
Cc1cc(C)cc(C(=O)OCC(=O)NCC(F)(F)F)c1	-5.1%	-8.8%
Cc1c(NC2=NC3(CCCCC3)Cc3ccccc32)c(=O)n(-c2ccccc2)n1C	8.1%	12.1%
Clc1ccc(CSc2cc3c(nn2)-c2ccccc2CC3)cc1Cl	4.4%	x
Cc1ccc(-n2c(SCC(=O)N(C)C3CCS(=O)(=O)C3)nc3ccccc3c2=O)cc1 (stereo not given)	-9.8%	-14.3%
CCN(C(=S)NC(=O)c1ccccc1Br)C1CCCCC1	-4.1%	i
COC(=O)c1c(NC(C)=O)sc(C(=O)Nc2ccccc2)c1C	2.0%	7.6%
Cc1ccc(-n2c(=O)c3sccc3n(Cc3cc(=O)n4cc(Cl)ccc4n3)c2=O)cc1F	3.2%	-11.5%
COc1ccc(S(=O)(=O)NCc2ccc(C(=O)NCCN(C)Cc3ccccc3)cc2)cc1	-1.0%	40.1%[activator]
NC(=O)c1cc([N+](=O)[O-])ccc1NCc1ccc(O)cc1	-22.3%	u
CCN1C(=O)[C@H]2[C@@H](c3ccc(-c4ccc(F)cc4)c(OC)c3)N3CCCC[C@@]3(C(=O)OC)[C@H]2C1=O	u	u
CCNC(=O)Nc1ccc2c(c1)c(=O)n(C)n2CC=C(C)C	-11.8%	19.1%
Fc1ccc(NC(=S)N2CCCC2)cc1	3.5%	x
O=C(NCCSc1c(-c2ccc(F)cc2)[nH]c2ccccc12)c1ccc(S(=O)(=O)N2CCOCC2)cc1	u	u
COC(=O)c1c(Cl)c(Cl)c(C(=O)OC)c(Cl)c1Cl	0.0%	i
C=CCN(Cc1nc(-c2ccc(OC)cc2)no1)C(=O)c1ccc2c(c1)OCO2	-5.3%	-11.2%
Cc1ccc(NS(=O)(=O)c2ccc(CCC(=O)NCCCOC(C)C)cc2)cc1	-0.7%	i
C=CCn1c(C(C)NC(=O)c2ccccc2C)n[nH]c1=S (stereo not given)	-15.2%	i
Remaining list, next part:
SMILES	VACV Venus inh	VACV mCherry inh
O=C1N(Cc2cccnc2)C[C@@H]2C[C@@H](c3ccc4nsnc4c3)N3CCC[C@@]123	-3.0%	-6.8%
O=C(Cn1sc2ccccc2c1=O)Nc1ccccc1	-10.8%	u
COc1cc(OC)cc(OC)c1	-9.4%	i
Cc1ccc(S(=O)(=O)NNC(=O)C2CC=CCC2C(=O)O)cc1 (stereo not given)	4.5%	4.9%
COC(=O)C1=C(C)N(Cc2ccccc2)C(=O)N[C@H]1CCc1ccccc1	-5.8%	i
O=C(NCC(=O)N(CCc1ccccc1)C(C(=O)NC1CCCCC1)c1ccncc1)c1ccco1 (stereo not given)	-3.0%	-14.4%
CC(=O)Nc1cccc(/C(C)=N/NC(=O)c2ccc(CN3CCOCC3)cc2)c1	-2.6%	-1.0%
CCOC(=O)N1CCN(C(=O)Cc2ccccc2OC)CC1	-5.8%	i
O=S(=O)(c1ccccc1)c1nc(Nc2ccccc2N2CCOCC2)sc1Cl	-19.9%	-28.8%
COc1ccc(C(NC(=O)N2CC(C)OC(C)C2)C(Cl)(Cl)Cl)cc1F (stereo not given)	-2.7%	-10.5%
Cc1ccccc1-n1nc2c(c1NC(=O)c1ccc(S(=O)(=O)N(C)C)cc1)CSC2	-17.7%	-19.4%
COCCCNC(=O)C1CCCN(S(=O)(=O)c2cccc3nsnc23)C1 (stereo not given)	-7.6%	-12.0%
Fc1ccccc1-c1csc(=Nc2cccnc2)n1CCCn1ccnc1	-21.4%	-10.0%
O=C(CC1NC(=O)NC1=O)NC1(C(=O)NC2CCCCC2)CCCCC1 (stereo not given)	-5.2%	-21.2%
COc1ccccc1C(=O)COC(=O)CCNS(=O)(=O)c1ccc(C)c(C)c1	-15.7%	-15.7%
COc1ccc(CN2CCC(=O)N([C@H](CO)c3ccccc3)CC2)cc1	-4.7%&-7.3%	-29.1%&-11.6%
Cc1c(C(=O)OCC(=O)Nc2ccc(C(=O)N(C)C)cc2)oc2ccccc12	-9.6%	i
C[C@@H]1CN([C@H](C)CO)C(=O)c2cc(NC(=O)Nc3ccc(C(F)(F)F)cc3)ccc2O[C@H]1CN(C)Cc1ccc(Cl)c(Cl)c1	10µM*	u
CC(=O)C1=CCC(c2cccc(Cl)c2)N(S(=O)(=O)c2ccc(C)cc2)C1 (stereo not given)	-10.7%	30.0%
COc1ccccc1CNc1ncnc2c1nc1n2CCCC1	3.6%	2.0%
Cc1ccc(C2CCN(C(=O)c3cnn(-c4ccc(C)c(C)c4)c3C3CCN(C(=O)OC(C)(C)C)CC3)C2)cc1 (stereo not given)	-26.0%	-29.5%
Cc1cccc(C(=O)Nc2ccc(C(=O)/C=C/c3cccs3)cc2)c1	16.4%	-12.9%
CCN(CC)C(=O)C1=C(C)N(Cc2ccccc2)C(=O)C(CC(=O)NC2CCCC2)C1 (stereo not given)	-18.1%	i
CN(c1ccccc1C(=O)Nc1ccc(CC#N)cc1)S(=O)(=O)c1ccccc1	-4.6%	-13.6%
Clc1ccc(OCCCn2cncn2)cc1Cl	-12.2%	-15.0%
More compounds.
SMILES	VACV Venus inh	VACV mCherry inh
CC(=O)N1CCc2cc(S(=O)(=O)NC(C(=O)Nc3ccc(C)cc3C)C(C)C)ccc21 (stereo not given)	2.0%	6.3%
Cn1cccc1/C=C1\SC(=S)N(NC(=O)c2ccccc2Cl)C1=O	-6.5%	-10.0%
O=C(Nc1ccc2nc(SCCOc3ccccc3)sc2c1)c1ccc2c(c1)OCO2	-16.1%	-27.5%
Cc1cc2c(c(=O)n1CC1CCCO1)C(c1ccc3c(c1)OCO3)C(C#N)=C(N)O2 (stereo not given)	-13.3%	-24.8%
CC1CCC(N2CC(=O)N(C3CCCC3)C(c3ccc(Cl)cc3)C2=O)CC1 (stereo not given)	-5.5%	-1.8%
CC(C)c1ccc(CCNC(=O)c2ccc([N+](=O)[O-])cc2)cc1	-24.0%	-27.7%
CCn1c(=O)n(CC)c2cc(NC(=O)CSc3ccc([N+](=O)[O-])cn3)ccc21	-17.7%	-27.4%
Cc1ccc2[nH]c(=O)c(CN(CCCN3CCOCC3)Cc3nnnn3C3CCCC3)cc2c1	0.0%	-13.9%
COC(=O)c1ccc(C)c(NC(=O)CCn2[nH]c(=O)ccc2=O)c1	3.4%	-13.3%
COc1ccc(CN2CCN(Cc3cccc(OC)c3)C(CCO)C2)cc1 (stereo not given)	-12.1%	-11.1%
COCCCNC(=S)N1CCCC(c2nc3cc(C)c(C)cc3[nH]2)C1 (stereo not given)	-21.7%	i
CC(=O)N1CCN(S(=O)(=O)c2cccc(C(=O)OCC(=O)N3CC(=O)Nc4ccccc43)c2)CC1	1.2%	-8.5%
Clc1ccc(/C=N/c2c(-c3ccco3)nc3ccccn23)cc1	-0.4%	-15.2%
COc1ccc(C2=NS(=O)(=O)N(C)C(C(=O)NC(C)c3ccccc3)=C2)cc1 (stereo not given)	-14.8%&-3.8%	-13.7%&-6.1%
CNC(=S)N(Cc1cccs1)Cc1cc2cc(OC)c(OC)cc2[nH]c1=O	-14.6%	-20.4%
CCC(C)NC(=O)c1sc2nc(C)c(C(=O)Nc3ccc(C)cc3C)c(-c3ccccc3Cl)c2c1N (stereo not given)	-11.9%	1.7%
O=C(Cn1nc(C(=O)O)c2ccccc2c1=O)NCC1CCCO1 (stereo not given)	-17.9%	x
Cc1cccc(/C=N/Nc2cc(N3CCOCC3)nc(N3CCOCC3)n2)c1	u	u
Cc1ccc(OCC(=O)N/N=C\c2ccc(C)o2)c([N+](=O)[O-])c1	-5.3%	i
CCCCOC(=O)Nc1nnc(CCOCC)s1	-16.7%	i
NS(=O)(=O)c1ccc(CCNC(=O)COC(=O)CN2C(=O)C3CCCCC3C2=O)cc1 (stereo not given)	-8.1%	-2.3%
Cc1ccc(OCCN2CCC2(C)C(=O)Nc2ccc3c(c2)OCCO3)cc1 (stereo not given)	-4.0%	40.8%[activator]
CCOc1ccc(CCNC(=O)c2cn(C)c3ccc(S(=O)(=O)N4CCCCC4)cc3c2=O)cc1OCC	-9.0%	-18.9%
CN(CC(=O)Nc1ccc(F)cc1)C(=O)c1cc(-c2cccs2)nn1-c1ccccc1	-24.9%	i
CN(C1CCS(=O)(=O)C1)S(=O)(=O)c1cccs1 (stereo not given)	1.1%	i
Next part
SMILES	VACV Venus inh	VACV mCherry inh
Cc1c(C(=O)O)nnn1-c1nonc1N	-5.7%	-8.2%
Cc1cccc(NC(=O)c2nc[nH]c2C(=O)NCCN(CCNC(=O)c2[nH]cnc2C(=O)Nc2cccc(C)c2)CCNC(=O)c2[nH]cnc2C(=O)Nc2cccc(C)c2)c1	-28.3%	-10.0%
COc1ccc(NS(=O)(=O)c2ccc(C)c(C(=O)OC(C)C(=O)N3CCOCC3)c2)cc1 (stereo not given)	-8.6%	i
Cc1ccccc1C(=O)N/N=C/c1ccsc1C	-9.7%	-10.4%
CCCCCCCCCc1nc2sc3c(c2c(=O)n1NC(=O)c1ccccc1[N+](=O)[O-])CC(C)(C)OC3	1.8%	-10.0%
O=C(c1cccnc1)N1CCN(Cc2cccc(Br)c2)CC1	-8.9%	1.4%

Compound profiles, from the list above. Order of screens: VACV Venus inh	VACV mCherry inh
`NS(=O)(=O)c1ccc(CCNC(=O)COC(=O)CN2C(=O)C3CCCCC3C2=O)cc1` (stereo not given) is listed with -8.1%	-2.3%
`Cc1ccc(-n2c(=O)c3sccc3n(Cc3cc(=O)n4cc(Cl)ccc4n3)c2=O)cc1F` is listed with 3.2%	-11.5%
`CCN(C(=S)NC(=O)c1ccccc1Br)C1CCCCC1` is listed with -4.1%	i
`CN(C1CCS(=O)(=O)C1)S(=O)(=O)c1cccs1` (stereo not given) is listed with 1.1%	i
`COc1ccc2c(c1)c(C(=O)N/N=C/c1cccc(Br)c1)c(C)n2C` is listed with -24.2%	-12.0%

Screening results (PubChem BioAssay)
